Source: PubChem BioAssay
RE007 growth inh: qHTS Assay for Inhibitors of the HIV-1 protein Vpr; S. pombe RE007 Vpr strain, BacTiter-Glo ATP luminescence, 24 h; control for the full effect not named in the record; Potency, µM (series often up to 92.2 µM), without a hit: at the highest dose activity change, negative = less growth; actives 0.21% (n = 360,000); AID 651644, 2012; active = well fitted falling curve with a large enough effect; inconclusive = small, poorly fitted or top-dose-only effect; inactive = no such curve, though single readings can be large or run the other way;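 note: % is set by controls: 0 for no effect and ±100 for the full control effect; nearly all actives have a fitted effect of over 50% in size; the assay follows cell death caused by Vpr and the record does not say whether a fall means rescue or toxicity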
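Fission yeast strain RE007, carrying one chromosomally integrated HIV-1 vpr copy, was seeded at OD 0.01 in PMG+AL medium with 23 nL pinned compound. After 24 h at 30 °C and 99% humidity, viability was read by BacTiter-Glo luminescence.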
SARS PLP yeast: qHTS of Yeast-based Assay for SARS-CoV PLP | S. cerevisiae expressing SARS-CoV PLpro, growth rescue; control for the full effect not named in the record | AID 485353, 2010 | Potency, µM (top dose mostly 32.9 µM), inactives show top-dose activity, positive = growth rescue | actives 0.19% (n = 330,000); active means well fitted rising curve with a large enough effect; inconclusive means small, poorly fitted or top-dose-only effect; inactive means no such curve, though single readings can be large or run the other way; note: 0% is about no effect; nearly all actives have a fitted effect of over 55% in size; growth read by luminescence after 48 h
Marburg entry inh: qHTS for inhibitors of binding or entry into cells for Marburg Virus | Potency, µM (doses to about 37.8 µM), without a hit: at the highest dose activity change, negative = inhibition, hits mostly inhibitors | Marburg virus pseudotyped entry inhibition, cell reporter; control for the full effect not named in the record; about a third of the inactives were read at about 46 µM | actives 1.8% (n = 300,000) | AID 540276, 2011; active = well fitted inhibition curve with a large enough effect; inconclusive = small, poorly fitted or top-dose-only effect, or effect the other way; inactive = flat fitted curve, though single readings scatter; tested in HEK293 cells; about a fifth of its hits are not listed in these tables; note: % is set by controls: 0 for no effect and ±100 for the full control effect; luciferase read-out
NS1 inh: qHTS Assay for Inhibitors of Influenza NS1 Protein Function. Potency, µM (doses to about 46.1 µM), for inactives: at the top dose activity, positive = more growth. actives 0.4% (n = 270,000). S. cerevisiae slowed by influenza A NS1, growth recovery by OD600. AID 2326, 2010; active means well fitted rising curve with a large enough effect; inconclusive means small, poorly fitted or top-dose-only effect; inactive means no such curve, though single readings can be large or run the other way; note: nearly all actives have a fitted effect of over 50% in size
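Read-out: OD600 growth recovery of NS1-expressing budding yeast. Cells grown overnight at 30C in -URA glucose medium, washed, resuspended and diluted 1:100 in 2% galactose assay medium, pH 6.0. Same strain lacking NS1 served as positive control.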
Cruzain inh Det: qHTS Assay for Promiscuous and Specific Inhibitors of Cruzain (with detergent). Cruzipain (Trypanosoma cruzi), P25779. AID 1478, 2009. actives 0.43% (n = 200,000). purified cruzain, Z-FR-AMC fluorescence, 0.01% Triton. Potency, µM, without a hit: max response, negative = inhibition, hits mostly inhibitors;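 note: plate controls were neutral wells for no effect and buffer without enzyme for full effect; nearly all actives have a fitted effect of over 40% in size; top concentration of the series not given in the record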
Target sequence (P25779 123-467 limits assumed): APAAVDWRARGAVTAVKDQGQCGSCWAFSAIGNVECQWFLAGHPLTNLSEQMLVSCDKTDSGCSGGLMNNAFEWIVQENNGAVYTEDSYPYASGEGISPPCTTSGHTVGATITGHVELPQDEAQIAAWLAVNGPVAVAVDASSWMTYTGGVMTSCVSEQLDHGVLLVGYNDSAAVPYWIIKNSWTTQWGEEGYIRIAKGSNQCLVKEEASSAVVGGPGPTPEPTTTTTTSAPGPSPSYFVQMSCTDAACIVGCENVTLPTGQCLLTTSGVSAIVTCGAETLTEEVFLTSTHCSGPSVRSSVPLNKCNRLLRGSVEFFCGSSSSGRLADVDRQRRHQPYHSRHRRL
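Cruzain (1.5 nM) preincubated 15 min at RT with compound in 100 mM sodium acetate pH 5.5, 5 mM DTT, 0.01% Triton X-100. Reaction started with 2 uM Z-FR-AMC; AMC fluorescence (ex 360/em 450 nm) change over 60 s gave rate.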
LASV entry inh: qHTS for Inhibitors of binding or entry into cells for Lassa Virus; actives 1.2% (n = 300,000); Lassa virus pseudotype entry inhibition, cell reporter; control for the full effect not named in the record; Potency, µM (top dose mostly 37.9 µM), for the others: at the top dose activity change, negative = inhibition, hits mostly inhibitors; active means well fitted inhibition curve with a large enough effect; inconclusive means small, poorly fitted or top-dose-only effect, or effect the other way; inactive means flat fitted curve, though single readings scatter; tested in HEK293 cells; note: % is set by controls: 0 for no effect and ±100 for the full control effect; nearly all actives have a fitted effect of over 50% in size; luciferase read-out
2A StopGo: High Throughput Screening for Foot and Mouth Disease Virus Antivirals; human cells with a luciferase reporter of 2A StopGo recoding; control for the full effect not named in the record; Potency, µM (highest dose often 57.9 µM), for the others: top-dose signal change, negative = less light; actives 1.2% (n = 410,000); AID 1159524, 2015; active = well fitted falling curve with a large enough effect; inconclusive = small, poorly fitted or top-dose-only effect; inactive = no such curve, though single readings can be large or run the other way; tested in HEK293T cells; note: % is set by controls: 0 for no effect and ±100 for the full control effect; nearly all actives have a fitted effect of over 45% in size; luciferase light after 4 h
Cruzain noTriton: qHTS Assay for Promiscuous and Specific Inhibitors of Cruzain (without detergent). actives 2.3% (n = 200,000). purified cruzain, Z-FR-AMC fluorescence, no detergent. Potency, µM, for the others: max response, negative = inhibition, hits mostly inhibitors. AID 1476, 2009. Cruzipain (Trypanosoma cruzi), P25779;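 note: plate controls were enzyme without inhibitor for no effect and buffer without enzyme for full effect; nearly all actives have a fitted effect of over 40% in size; top concentration of the series not given in the record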
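Detergent-free condition (0.00005% Triton X-100) in acetate buffer pH 5.5 with DTT. 1.5 nM enzyme and compound were pre-mixed 15 min, then 2 uM Z-FR-AMC substrate added; reaction progress from fluorescence change between first and third reads (60 s).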
* hit, by the source's call; ? = inconclusive; / = not tested or not shown; & = joins results of further samples; [ ] = remark or other dose. Unless noted, calls come from the whole dose curve; as a rule, active = well fitted curve in the direction sought with a large enough effect; inconclusive = small, poorly fitted or top-dose-only effect, or another doubt; inactive = no such curve, though single readings can be large; an effect the other way counts as inactive or inconclusive. Potency is the fitted concentration of half-maximal effect.

Below each compound – RE007 growth inh, SARS PLP yeast, Marburg entry inh, NS1 inh, Cruzain inh Det, LASV entry inh, 2A StopGo, Cruzain noTriton
> CC1(C)CC[C@]2(C(=O)n3ccnc3)CC[C@]3(C)[C@H](C(=O)C=C4[C@@]5(C)C=C(C#N)C(=O)C(C)(C)[C@@H]5CC[C@]43C)[C@@H]2C1
→ -10.6%, /, 2.51µM*, /, /, 2.51µM*, 1.41µM*, /
> O=c1oc2ccccc2c(N2CCCC2)c1CN1CCCC1
→ -9.5%, 4.8%, 0.4%, -9.5%, -6.3%, 1.2%, /, 3.2%
> O=C(NCc1ccco1)c1cc2n(n1)C(C(F)(F)F)CC(c1ccc(Br)cc1)N2 (configuration not stated)
→ -5.2%, -4.9%, ?, -5.2%, 4.0%, ?, -26.8%, ?
> COc1cc(/C=C/c2nc(-c3ccccc3O)n[nH]2)cc(OC)c1OC
→ 39.1%, -16.7%, ?, -5.9%, -10.1%, ?, ?, ?
> COc1cccc(NC(=O)N2CCCCCC2)c1
→ 0.6%, -7.0%, /, -16.3%, /, /, 57.5%[activator], /
> Cc1cccc2sc(NC(=O)Cn3c(C)csc3=O)nc12
→ 3.6%, -0.2%, -16.7%, /, /, ?, 11.7%, /
> COC(=O)c1ccc(NC(=O)c2cccc3c2C(=O)N(C2CCCCC2)C3)cc1
→ /, /, 2.7%[46.1 µM], /, -0.8%, 19.1%[46.1 µM], -12.2%, -6.5%
> CSc1ccc(C2Nc3ccccc3-c3cc(C)nn32)cc1 (configuration not stated)
→ 5.1%, 9.5%, ?, -53.3%, -12.2%, 19.2%, 1.5%, -6.7%
> C=CCn1c(NCc2cc(C)ccc2O)nc2ccccc21
→ -5.7%, 7.4%, /, -52.0%, -0.1%, /, -0.1%, 0.0%
> O=C(O)CC(C(=O)Nc1ccc(Cl)cc1)N1CCCCCC1 (configuration not stated)
→ 2.6%, -8.4%, 8.9%[46.1 µM], -14.1%, /, 0.0%[46.1 µM], -8.4%, /
> O=C(CSCC(=O)NC1CCCC1)Nc1ccccc1
→ -10.2%, 10.6%, ?, 10.9%, 4.2%, 2.4%, -17.4%, 9.2%
> CCCOc1ccc(CNC(=O)Cn2ncn3c(cc4sc(CC)cc43)c2=O)cc1
→ /, /, -4.6%[46.1 µM], /, -1.4%, /, -10.6%, -6.2%
> Cc1nc2ncnn2c(C)c1CCC(=O)Oc1ccccc1
→ -1.5%, 1.5%, 10.6%, -2.9%, -0.1%, 0.8%, 17.3%, 11.9%
> Cc1cc(C)cc(NC(=S)N2CCC(N(C)CC3CCCO3)CC2)c1 (configuration not stated)
→ 0.3%, -0.4%, -3.7%[46.1 µM], /, /, -5.0%, 4.7%, /
> Cc1cccc(OCC(=O)NNC(=O)Cn2c(=O)cnc3ccccc32)c1
→ 13.6%, ?, -11.3%, /, /, 8.2%, -10.7%, /
> Cc1ccc(CN(C)C(=O)CC2C(=O)NCCN2CC2CCCCC2)cc1 (configuration not stated)
→ 0.4%, 1.1%, 7.8%[46.1 µM], 5.8%, /, 2.0%[46.1 µM], -17.4%, /
> CCC(C)NC(=O)C1c2ccccc2C(=O)N1Cc1cc(OC)ccc1OC (configuration not stated)
→ -6.0%, 10.0%, -2.3%, -6.0%, 1.5%, 16.2%, 47.2%[activator], 5.1%
> CCOc1cc(C)c(S(=O)(=O)Nc2ccc(F)cc2)cc1C
→ ?, -12.6%, -28.8%, -48.9%, -7.3%, 5.2%, 21.5%, -1.2%
> O=C(CC1CCCCC1)NCc1ccc(F)cc1
→ -1.1%, 3.8%, 10.5%[46.1 µM], -1.4%, /, 9.6%[46.1 µM], -2.4%, /
> CCC(C)(C)N=C(NC#N)Nc1cccnc1
→ /, 3.2%, /, /, -1.6%, /, -21.6%, -9.9%
> COc1ccc2oc(=O)c(C(=O)N3CCc4ccccc43)cc2c1
→ 16.7%, -1.7%, 28.4%[46.1 µM], -3.1%, 0.5%, 1.9%, 37.3%[activator], 7.4%
> O=C(NCCc1ccccc1)C1CCN(S(=O)(=O)c2cccc3nsnc23)CC1
→ 2.7%, 7.0%, 10.4%, -1.3%, 2.3%, 29.5%, -4.8%, -6.4%
> Cc1ccccc1OCC(O)Cn1c(NCCN(C)C)nc2c1c(=O)n(C)c(=O)n2C (configuration not stated)
→ /, 3.4%, /, -2.6%, 3.1%, /, /, -6.8%
> CCOC(=O)c1c(CSc2ccc(C)cc2)oc2ccc(O)cc12
→ ?, -5.2%, -0.1%, -5.8%, -10.5%, ?, 22.4µM*, 7.4%
> CCOC(=O)C(Cc1ccccc1)C(=O)Nc1ccccc1C (configuration not stated)
→ 1.1%, -1.9%, 4.4%, -6.2%, 2.2%, -9.2%, -19.1%, 3.5%
> O=C(c1ccc(-c2ccccc2)cc1)N1CCN(Cc2ccccn2)CC1
→ 8.0%, 5.1%, -19.9%, -18.5%, 2.1%, -13.5%, -10.2%, -2.6%
> CCOC(=O)Cn1c(=O)oc2cc(S(=O)(=O)N3CCN(C(=O)c4ccco4)CC3)ccc21
→ 1.6%, -30.7%, 5.7%&7.0%, 16.9%, 0.3%, ?, -14.5%, 7.0%
> CCOC(=O)Cc1c(C)nc2cc(-c3ccc(Cl)cc3)[nH]n2c1=O
→ 9.5%, 0.3%, ?, 1.4%, 2.8%, 9.3%, 43.8%[activator], 6.9%
> O=[N+]([O-])c1ccccc1S(=O)(=O)n1nnc2ccccc21
→ /, 9.4%, ?, -11.7%, 4.3%, -6.4%, -6.1%, 3.4%
> O=C(COc1ccc(S(=O)(=O)NC2CCCCC2)cc1)NCCC1=CCCCC1
→ 2.0%, 6.6%, -3.1%, -0.8%, -5.5%, -27.3%, -20.8%, -6.0%
> CC12CCC(=O)N1C(C(=O)Nc1cccc(S(=O)(=O)N3CCCCCC3)c1)CS2 (configuration not stated)
→ -12.3%, 5.4%, ?, /, /, -1.8%, ?, /
> O=C(NCc1ccccc1)c1ccc(CS(=O)(=O)c2ccc(Br)cc2)o1
→ -10.4%, 2.8%, 0.7%[46.1 µM], -6.8%, /, -22.4%[46.1 µM], -21.0%, /
> O=C(Cn1c(=O)nc(-c2ccccc2)c2ccccc21)NCc1ccc(F)cc1
→ /, /, /, /, 0.1%, ?, 28.7%, -6.0%
> COc1ccc(N(CC(=O)N2CCN(c3ccccc3)CC2)S(=O)(=O)c2ccc(C)cc2)cc1
→ 27.6%, 3.0%, -0.7%, 6.8%, /, -26.5%, -7.4%, /
> COCCN(C(=O)COC(=O)c1cccs1)c1c(N)n(Cc2ccccc2)c(=O)[nH]c1=O
→ 6.7%, 2.4%, /, 9.8%, /, /, -8.0%, /
> COC(C(=O)Nc1ccnn1C1CCN(Cc2ccc(CO)o2)CC1)c1ccccc1 (configuration not stated)
→ 5.0%, -5.0%, 3.5%, 4.4%, /, 3.8%, 0.0%, /
> Clc1ccc(/C=N/Nc2ncnc3nc[nH]c23)cc1
→ 6.0%, -0.4%, -19.5%[46.1 µM], -6.2%, /, 14.1%, 41.6%[activator], /
> Clc1ccc(CNc2ccc(CNc3ncn[nH]3)cc2)cc1
→ -2.1%, 4.0%, 21.1%, -27.4%, -4.6%, ?, 0.5%, -10.1%
> O=C(O)c1nc(N2CCCCC2)ncc1Cl
→ 8.0%, 0.9%, -0.3%, -0.2%, 5.9%, -12.0%, -3.5%, 10.0%
> C#CCOCCOCCOCCNc1nc(N2CCN(C(=O)[C@H](CCCCN)n3cc([C@@H](N)CC(C)C)nn3)CC2)nc(N2CCN(C(=O)[C@H](CCCCN)n3cc([C@@H](N)CC(C)C)nn3)CC2)n1
→ -2.6%, 1.2%, /, 2.7%, /, /, -13.4%, /
> COc1ccc(OC)c(NC(=O)Cc2c(C(=O)O)[nH]c3ccc(Cl)cc23)c1
→ /, /, 16.5%[46.1 µM], /, -0.1%, 0.5%[46.1 µM], 3.7%, 4.5%
> COc1ccc(C(=O)Cn2c(C)nc([N+](=O)[O-])c2Br)cc1
→ 31.9%, -1.5%, -1.0%, -38.2%, /, -11.1%, ?, /
> O=C1c2ccccc2C(=O)N1Cc1ccccc1F
→ -1.8%, 1.1%, 19.2%[46.1 µM], 4.0%, /, 2.1%, 7.3%, /
> CCC(=O)Nc1ccc(S(=O)(=O)Nc2ccc(Cl)nn2)cc1
→ -13.7%, 19.2%, -2.7%, 4.3%, 1.0%, 1.7%, -14.1%, 4.9%
> CCC(Oc1ccccc1)C(=O)N1CC(C)CC(C)C1 (configuration not stated)
→ -2.2%, 0.3%, 7.3%, 0.7%, 3.7%, 5.4%, 0.0%, -1.5%
> CCOC(=O)C1(Cc2cccc(Cl)c2)CCCN(C(=O)c2cccnc2)C1 (configuration not stated)
→ -10.3%, 0.7%, -8.8%[46.1 µM], 3.5%, /, 2.5%, -18.8%, /
> Cc1c(NC(=S)N/N=C/c2cc([N+](=O)[O-])ccc2O)c(=O)n(-c2ccccc2)n1C
→ 3.6%, 6.9%, /, -4.1%, /, /, -22.8%, /
> C=CCOc1ccc(C2NC(=O)c3ccccc3O2)cc1OCC (configuration not stated)
→ -15.7%, -8.4%, ?, 15.1%, /, -23.0%, -7.4%, /
> CCOC(=O)C1CCCN(C(=O)c2ccc3c(c2)sc2nc(-c4cccc(OC)c4)cn23)C1 (configuration not stated)
→ /, /, /, /, -1.8%, 1.8%[46.1 µM], 31.6µM*, 8.8%
> CCN1CCN(C(CNS(=O)(=O)c2ccccc2)c2cccnc2)CC1 (configuration not stated)
→ 5.6%, -1.0%, -1.6%, 2.3%, /, 1.7%, -15.4%, /
